TRPV1 potentiator: enhances activation of the human vanilloid receptor TRPV1; TRPV1-expressing cells, Fluo-8 calcium influx, capsaicin EC20 potentiation; host cell line not named in the record; control for the full effect not named in the record; potentiation, % at 8.33 µM; AID 540277; hit rate 0.02% among 320,000; active means potentiation above 80%; inconclusive means 30% to 80%; inactive means below 30%; also: 0% is about no effect
Target sequence (Q8NER1 whole entry, looked up): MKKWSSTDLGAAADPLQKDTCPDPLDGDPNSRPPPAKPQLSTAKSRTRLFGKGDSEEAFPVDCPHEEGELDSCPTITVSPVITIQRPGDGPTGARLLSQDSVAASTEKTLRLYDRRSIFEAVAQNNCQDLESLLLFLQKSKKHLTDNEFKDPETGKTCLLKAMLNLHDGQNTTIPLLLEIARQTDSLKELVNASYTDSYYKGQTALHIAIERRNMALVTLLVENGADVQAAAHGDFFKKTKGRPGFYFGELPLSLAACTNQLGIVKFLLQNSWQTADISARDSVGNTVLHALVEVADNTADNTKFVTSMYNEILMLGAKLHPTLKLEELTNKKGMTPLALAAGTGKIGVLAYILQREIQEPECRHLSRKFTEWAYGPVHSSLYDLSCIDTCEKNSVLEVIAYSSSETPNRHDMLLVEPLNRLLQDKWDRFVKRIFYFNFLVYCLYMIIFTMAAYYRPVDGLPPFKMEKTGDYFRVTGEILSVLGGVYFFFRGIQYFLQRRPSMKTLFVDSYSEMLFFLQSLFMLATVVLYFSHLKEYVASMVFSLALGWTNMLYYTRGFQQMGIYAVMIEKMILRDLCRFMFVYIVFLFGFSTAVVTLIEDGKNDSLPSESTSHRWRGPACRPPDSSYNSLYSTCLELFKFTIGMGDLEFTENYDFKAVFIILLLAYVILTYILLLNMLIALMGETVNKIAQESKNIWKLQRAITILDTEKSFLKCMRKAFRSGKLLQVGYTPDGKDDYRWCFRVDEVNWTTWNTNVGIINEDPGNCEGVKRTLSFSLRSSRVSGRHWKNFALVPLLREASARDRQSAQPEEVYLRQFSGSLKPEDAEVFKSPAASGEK
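Cells expressing TRPV1 were dye-loaded with Fluo-8 and read kinetically: 10 s baseline, 3 min after compound (agonist portion), then 2 min after EC20 capsaicin (allosteric enhancer portion). Calcium-bound dye fluorescence at 480/520 nm.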
ClpP mod: qHTS Assay for Activators of ClpP; purified B. subtilis ClpP, FRET peptide cleavage, 20 min; hit rate 1.9% among 340,000; Potency, µM (highest dose often 57.5 µM), without a hit: at the highest dose activity change, negative = active; active = well fitted falling curve with a large enough effect; inconclusive = small, poorly fitted or top-dose-only effect; inactive = no such curve, though single readings can be large or run the other way; also: potency is read from the fitted curve at half-maximal effect; the source files actives as falling curves though it sought activators and does not explain the sign; nearly all actives have a fitted effect of over 65% in size; many hits overshoot -100%
Target sequence (P80244 whole entry, looked up): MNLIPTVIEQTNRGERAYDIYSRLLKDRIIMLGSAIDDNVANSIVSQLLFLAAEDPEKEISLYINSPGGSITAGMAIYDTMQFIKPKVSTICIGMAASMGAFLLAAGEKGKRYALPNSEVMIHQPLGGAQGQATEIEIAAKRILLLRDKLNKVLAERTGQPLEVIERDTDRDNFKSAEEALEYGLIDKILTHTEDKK
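ClpP 10 microg/mL final, pH 8 Tris/KCl buffer with BSA, glycerol, Tween-20; compound pinned in; FRET-FV substrate; RT 20 min; Ex320/Em430; ΔFRET vs ADEP 5.8 microM, DMSO, no enzyme.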
Menin-MLL FL inh: displaces fluorescein MLL peptide from human menin; Fluorescence polarization, fluorescein-MLL peptide displacement from menin; FP activity change, % at 61.4 µM; 290,000 tested, under 10 active; inconclusive = falling polarisation curve, or a change in total fluorescence; inactive = total fluorescence flat and polarisation flat or rising; no compound was filed as active; the % refers to the polarisation; negative = inhibition;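 also: % of control where 0% means no effect; inhibitors lower the polarisation; unlabelled MLL peptide was the positive control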
Sfp PPTase inh: Sfp phosphopantetheinyl transferase inhibition; Q9F4F7; Biochemical Sfp PPTase activity, qHTS; Potency, µM, for the others: max response, negative = inhibition, usual class: inhibitors; hit rate 3.5% among 310,000; AID 1490; active = well fitted inhibition curve with a large enough effect; inconclusive = small, poorly fitted or top-dose-only effect, or another doubt; inactive = no such curve, though single readings can be large or run the other way;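 also: the enzyme is Sfp with the accession as filed and its product quenches rhodamine fluorescence; potency is read from the fitted curve at half-maximal effect; 0% = enzyme reaction without inhibitor and -100% = no enzyme wells; top concentration of the series not given in the record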
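Reaction rates are the 30-min fluorescence difference (ex 525, em 598 nm) in wells containing 15 nM Sfp, 5 uM rhodamine-CoA and 12.5 uM BHQ-2-YbbR at pH 7.6 with 10 mM MgCl2.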
TRPML1 inh: blocks the human TRPML1 channel | Q9GZU1 | TRPML1-inducible cells, Ca2+ dye fluorescence, FDSS; active compounds read low; inhibition of EC80 agonist-evoked calcium signal | activity change, negative = inhibition, % (test concentration not listed) | hit rate 0.02% among 390,000; in the data active means activity change below about -50%; inconclusive means about -30% to -50%; inactive means above about -30%;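 also: stimulus is agonist 54-4 at its EC80 concentration; % is scaled to controls: 0 for no effect and ±100 for the full control effect; compound concentration not given in the record; the text of the record puts the active cut at -80%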
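Tet-induced TRPML1-DL cells loaded with Ca8 no-wash calcium dye were read kinetically on FDSS. Compound addition was followed by EC80 agonist 54-4 (4 uM final); inhibition was read over 110 s.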
TRPML1 agonist: agonists of human TRPML1 channel; Q9GZU1; TRPML1-expressing cells, Ca2+ dye fluorescence, FDSS; host cell line not named in the record; reference of the full effect not given here; activation, % (concentration not given with the values); hit rate 0.12% among 410,000; in the data active = activation above about 50%; inconclusive = about 30% to 50%; inactive = below about 30%; also: 0% is about no effect; the text of the record puts the active cut at 80%
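Tet-induced TRPML1-DL cells, 1,500 per well, cultured overnight, were loaded with a no-wash Ca2+ dye for 45–90 min. Calcium fluorescence was recorded on the FDSS for 110 s after compound addition, before the EC80 agonist (4 uM 54-4) was added.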
PINK1 expr mod: modulators of PINK1 expression | PINK1 immunofluorescence, high-content cytometry, 24 h | Potency, µM (doses to about 76.6 µM), without a hit: top-dose activation (PINK1 increase), actives largely listed as activators | hit rate 0.2% among 410,000 | AID 624263; active = well fitted activation curve with a large enough effect; inconclusive = small, poorly fitted or top-dose-only effect; inactive = flat fitted curve, though single readings scatter; cell line not stated here;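 also: potency is read from the fitted curve at half-maximal effect; % of control where 0% means no effect; nearly all actives have a fitted effect of over 65% in size; a mitochondrial uncoupler was the plate control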
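Stable cell line, 250 cells/well, 12 h attachment; compounds pinned at 5 concentrations, 24 h; CCCP control. Fixed with nuclear dye, primary antibodies 12 h at 10 degrees C, secondary plus cell stain; laser-scanning cytometer read.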
Starred values were filed as active, the others as inactive; ? = inconclusive; . = not tested or not shown; & = joins results of further samples; [ ] = dose if it differs, or a comment.

SMILES	TRPV1 potentiator	ClpP mod	Menin-MLL FL inh	Sfp PPTase inh	TRPML1 inh	TRPML1 agonist	PINK1 expr mod
O=C(NN1C(=O)C2C3c4ccccc4C(c4ccccc43)C2C1=O)c1ccc(Cl)cc1 (configuration not stated)	-5	0.2%	1.9	18%	11	-1.0	9.8%
CS(=O)(=O)c1cccc(S(=O)(=O)N2CCCCCC2)c1	0	0.7%	-1.5	10%	7	0.1	-0.7%
CCCC(C)NNC(=O)c1cc2ccccc2[nH]1 (configuration not stated)	-25	-7.5%	5.2	14%	3	-0.2	-1.6%[38.3 µM]
CCC1CN(C(=O)NCc2ccccc2)c2cc(C)ccc2O1 (configuration not stated)	-18	-1.2%&1.2%	1.2	15%	28&-14	1.5&2.8	0.6%&0.1%
CCC1CCCCN1C(=O)CCCc1ccccc1 (configuration not stated)	-9	-2.1%	0.6	-4%	0	0.6	-1.7%
Cc1ccc2c(c1)c(CC(=O)Nc1ccc(C)c(F)c1)c(C(=O)O)n2C	-2	-9.5%&-14%	0.8	1%	2&-2	-0.1&2.4	0.9%
COc1cccc(C(=O)Cn2c(Br)nc3c2c(=O)n(C)c(=O)n3C)c1	19	-1.1%	13	?	8	1.1	-1.0%
O=C(Nc1nc2c(Cl)cccc2s1)c1ccc([N+](=O)[O-])o1	4	1.3%	-3.2	8%	-7	0.9	?
CC(NC(=O)c1cc(-c2ccncc2)nc2ccc(Cl)cc12)C1CCCO1 (configuration not stated)	-7	?	.	10%	-14	0.0	-2.4%
NC(=O)CC(NC(=O)c1cccc(Br)c1)c1ccc(NC2CCCCCCC2)c([N+](=O)[O-])c1 (configuration not stated)	11	1.0%	10	2%	-6	-0.5	0.0%
O=C(Nc1nnc(S(=O)(=O)N2CCCCC2)s1)c1ccc(F)cc1	.	-5.8%	.	.	17	0.3	-1.6%
COC(=O)c1ccccc1NC(=O)Cn1c(=O)n(CCC(=O)NCc2ccc3c(c2)OCO3)c(=O)c2ccccc21	.	-17%	.	.	9	0.3	-0.3%
O=C(COC(=O)CC1Sc2ccccc2NC1=O)NCc1ccccc1 (configuration not stated)	-13	4.9%	.	.	-9	-0.5	-0.2%
CCOC(=O)CN1C(=O)C(O)(CC(=O)c2ccc3c(c2)CCCC3)c2ccccc21 (configuration not stated)	16	-1.5%	-3.7	6%	46	1.0	-2.4%
O=C(CC1SC(=O)N(Cc2ccccc2)C1=O)Nc1nccs1 (configuration not stated)	-3	-1.2%	-0.8	-21%	-4	0.9	11%
C[C@H](NC(=O)c1[nH]cnc1C(=O)Nc1nccs1)c1ccccc1	-2	-1.7%	.	.	22	0.0	11%
O=C(Nc1c2c(nc3ccccc13)CCCC2)c1ccccc1F	-8	-0.1%	1.9	8%	11	-0.3	7.6%
COc1ccccc1OCCC(=O)O	14	-0.8%	-0.1	19%	17	-0.2	-1.0%
CCOC(=O)/C(C#N)=C/c1ccc(OCC(=O)Nc2ccc(C)c(C)c2)c(OC)c1	-8	1.0%	3.4	-19%	-8	1.1	-0.7%
CCc1ccc(NC(=O)CCNS(=O)(=O)c2cccs2)cc1	9	.	2.4	8%	-2	-0.5	1.4%
CCOC(=O)C1CCCN(S(=O)(=O)c2ccc(NC(C)=O)cc2)C1 (configuration not stated)	1	0.2%	2.0	24%	-17	0.9	2.7%
N=C(N)SCc1cn2ccccc2n1	0	-1.7%	6.5	0%	5	0.8	1.3%
CCn1c(=O)c(C(=O)NCCCc2ccccc2)c(O)c2ccccc21	19	?	-5.2	3%	-14	3.1	20%
CSc1nsc(N/N=C/c2ccc3c(c2)OCO3)c1C#N	0	21%	-1.0	21%	2	0.3	14%
CCC(O)CNc1nc(-n2nc(C)cc2C)nc2sc3c(c12)CCCC3 (configuration not stated)	-9	.	1.2	5%	.	.	.

At a glance, part of the list above.
SMILES	TRPV1 potentiator	ClpP mod	Menin-MLL FL inh	Sfp PPTase inh	TRPML1 inh	TRPML1 agonist	PINK1 expr mod
CCOC(=O)/C(C#N)=C/c1ccc(OCC(=O)Nc2ccc(C)c(C)c2)c(OC)c1	-8	1.0%	3.4	-19%	-8	1.1	-0.7%
CCc1ccc(NC(=O)CCNS(=O)(=O)c2cccs2)cc1	9	.	2.4	8%	-2	-0.5	1.4%

Additional compounds follow:
SMILES	TRPV1 potentiator	ClpP mod	Menin-MLL FL inh	Sfp PPTase inh	TRPML1 inh	TRPML1 agonist	PINK1 expr mod
NC(=O)c1ccccc1NC(=O)CN1CCOCC1	7	-0.5%	-0.5	15%	6	-0.7	-3.4%
Cc1cccc(-c2cc(NC=O)c3ncc(-c4cccc(C(=O)N(C)C)c4)n3c2)c1	.	?	.	.	.	-0.8	0.0%
CCOC(=O)Cc1csc(NC(=S)NC(=O)c2cc(OC)cc(OC)c2)n1	10	1.2%	-2.3	12%	18	1.6	2.0%
CCOC(=O)Cc1ccc(NC(=O)N2CCC(CN3CCC(C)CC3)CC2)cc1	.	-1.9%	.	.	3	-0.4	0.5%
O=C(Cc1ccc(Cl)c(Cl)c1)Nc1ccccc1N1CCCC1	11	1.2%	.	4%	13	1.3	3.6%
O=C(O)c1ccc(-n2c(/C=C\c3ccc(O)cc3)nc3ccccc3c2=O)cc1	.	-7.8%	.	.	54	4.1	-1.3%
O=C(CN1C(=O)/C(=C\c2cccc(Cl)c2)Sc2ccccc21)NCCCN1CCOCC1	3	2.4%	-2.1	-6%	-14	0.4	1.8%
O=C(CN1CCN(S(=O)(=O)c2cccc(Br)c2)CC1)N1CCCCC1	-9	1.1%	.	.	3	-0.4	2.5%
O=C(NCCc1ccccc1)c1ccc2c(c1)N(Cc1c(F)cccc1Cl)C(=O)CS2	.	-2.8%	.	.	27	3.6	0.5%
COc1cc(OC)cc(C(=O)N2CCN(S(=O)(=O)c3ccc(Cl)s3)CC2)c1	-3	1.0%	.	.	40	0.7	-1.1%
CCOC(=O)c1cc2c(c(CCO)n1)[C@H](CCO)N(S(=O)C(C)(C)C)C2 (some centres not stated)	.	-15%	.	.	39	4.0	0.0%
COc1cccc(/C=N/NC(=O)C(=O)Nc2ccccc2OC(F)(F)C(F)F)c1O	23	-11%	.	9%	-15	0.2	2.0%
O=C(NC(Cc1ccccc1)c1nc2ccccc2[nH]1)c1cccc([N+](=O)[O-])c1 (configuration not stated)	-16	.	-2.2	-3%	7	0.3	?
Cc1ccc(N=Nc2c(=O)[nH]n3c(C)cc(C)nc23)cc1	.	0.4%	8.7	-9%	-6	-1.1	-0.9%
CC(C)Cn1cc(-c2cncc3nccn23)cn1	.	4.5%	.	.	25	-0.2	-1.4%
CC1CCN(C(C)C(=O)Nc2ccccc2-c2ccccc2)CC1 (configuration not stated)	-13	1.3%	-1.6	-12%	1	0.9	24%
COc1ccc2cc(C(=O)OC(C)C)sc(=O)c2c1OC	-5	-8.2%	3.0	10%	20	-1.1	-1.9%
COc1ccc(C2(C(=O)N3CCCC3)CCOCC2)cc1OC	-1	-9.3%	-1.5	15%	2	0.2	.
CS(=O)(=O)N1CCC[C@@]2(CCN(c3ccncc3)C2)C1	.	.	-2.6	14%	.	.	-0.6%
COc1ccc(Cl)cc1-c1nc(SCC(N)=O)n[nH]1	-3	.	-1.1	0%	12	-0.1	-0.2%
C=C1CCN([C@@H](Cc2ccccc2)C(=O)NCCC(C)C)S(=O)(=O)c2ccccc21	.	0.7%	.	.	12	-0.2	-0.5%
O=C(N/C(=C\c1ccc([N+](=O)[O-])cc1)C(=O)N1CCCCC1)c1ccccc1Br	6	-14%	1.3	8%	3	0.4	3.6%
CCOC(=O)CC(C(=O)OCC)P(=O)(c1ccccc1)c1ccccc1 (configuration not stated)	18	-1.6%	4.5	16%	-4	1.1	2.0%
Cc1ccsc1C(=O)OCC(=O)Nc1c(C)n(C)n(-c2ccccc2)c1=O	21	-1.2%	5.3	11%	20	0.9	-3.2%
CC(C)C[C@@H](CNCC(=O)[C@H](Cc1ccccc1)NC(=O)c1[nH]cnc1C(=O)N[C@@H](C)CN)NC(=O)c1nc[nH]c1C(=O)N[C@@H](CC(=O)O)C(=O)O	.	1.1%	.	.	18	-0.5	1.0%

Going on with the list.
SMILES	TRPV1 potentiator	ClpP mod	Menin-MLL FL inh	Sfp PPTase inh	TRPML1 inh	TRPML1 agonist	PINK1 expr mod
CN(CC(=O)Nc1ccc([N+](=O)[O-])cc1Br)Cc1c(F)cccc1Cl	12	2.4%	2.3	-1%	3	1.6	4.0%
CCCCN(C)C1CCN(C(=S)Nc2cccc(OC)c2)CC1	3	.	-3.5	3%	18	0.2	0.3%
COc1ccc(S(=O)(=O)N(CC(=O)Nc2ccc(Br)cc2)Cc2ccccc2)cc1	.	?	.	.	14	-0.7	1.1%
O=C(c1c(Cl)cccc1Cl)N1CCN(c2cccc3[nH]ccc23)CC1	8	.	1.9	89µM*	5	0.6	7.4%
CCOC(=O)c1c(C)[nH]c(C)c1S(=O)(=O)N1CCCC(C(=O)N2CCN(c3ccc(Cl)cc3)CC2)C1 (configuration not stated)	.	2.1%	.	.	8	-0.7	0.7%
NC(=O)C1CCN(CC(=O)Nc2ccc3c(c2)OCO3)CC1	.	0.7%	.	.	14	-0.2	3.4%
Cc1ccc(Cl)cc1NC(=O)C1CCCN(c2cnccn2)C1 (configuration not stated)	6	-25%&-5.9%	.	6%	9&6	-1.2&4.6	1.1%&0.7%
Cc1nn(-c2ccccc2)c(N2CCCC2)c1/C=N/NC(=S)Nc1ccc(F)cc1	.	.	.	.	-10	1.2	23%
Cc1ccc(C(=O)CC(C(=O)O)n2ccc(C)n2)cc1 (configuration not stated)	3	0.4%	2.1	8%	47	0.3	-0.5%
COc1ccc(C)cc1NS(=O)(=O)c1ccc2c(c1)CCN2C(C)=O	5	-1.4%	4.4	-1%	2	1.2	0.2%
COc1ccc(S(=O)(=O)Nc2ccccc2C)cc1	-4	-0.7%	-0.3	13%	-1	-0.2	3.4%
CCOc1ccc(NC(=O)CN2CCc3cc4c(cc3C2)OCCCO4)cc1OCC	-9	-0.6%	.	14%	-7	0.8	1.5%
Cc1ccc(C)c(NC(=O)CCN2CCN(c3ccccc3F)CC2)c1	-15	-1.9%	2.9	12%	-7	1.3	0.1%
CCC[n+]1c2ccccc2cc2ccccc21	-11	.	.	50µM*	5	1.3	-0.1%

Structures above shown as hits in Sfp PPTase inh:
SMILES	Menin-MLL FL inh	Sfp PPTase inh	TRPML1 inh	PINK1 expr mod
O=C(c1c(Cl)cccc1Cl)N1CCN(c2cccc3[nH]ccc23)CC1	1.9	89µM*	5	7.4%
CCC[n+]1c2ccccc2cc2ccccc21	.	50µM*	5	-0.1%

Compound activity (PubChem BioAssay)
